# Lassa entry inh = inhibitors of Lassa virus binding or cell entry | Lassa virus pseudotype entry inhibition, cell reporter; control for the full effect not named in the record | Potency, µM (series often up to 37.9 µM), without a hit: at the top dose activity change, negative = inhibition, usual class: inhibitors | 300,000 compounds, 1.2% hits; active means well fitted inhibition curve with a large enough effect; inconclusive means small, poorly fitted or top-dose-only effect, or effect the other way; inactive means flat fitted curve, though single readings scatter; tested in HEK293 cells; also: % is scaled to controls: 0 for no effect and ±100 for the full control effect; nearly all actives have a fitted effect of over 50% in size; luciferase read-out
# SARS PLpro yeast = inhibitors of SARS-CoV papain-like protease in yeast. S. cerevisiae expressing SARS-CoV PLpro, growth rescue; control for the full effect not named in the record. Potency, µM (titrated, usually from 32.9 µM), for inactives: top-dose activity, positive = growth rescue. 330,000 compounds, 0.19% hits. AID 485353; also: 0% is about no effect; nearly all actives have a fitted effect of over 55% in size; growth read by luminescence after 48 h
# Cruzain Triton = blocks cruzain activity in presence of Triton detergent. 200,000 compounds, 0.43% hits. purified cruzain, Z-FR-AMC fluorescence, 0.01% Triton. Potency, µM, without a hit: max response, negative = inhibition, actives largely listed as inhibitors; active = well fitted curve in the direction sought with a large enough effect; inconclusive = small, poorly fitted or top-dose-only effect, or another doubt; inactive = no such curve, though single readings can be large; an effect the other way counts as inactive or inconclusive;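 also: plate controls were neutral wells for no effect and buffer without enzyme for full effect; nearly all actives have a fitted effect of over 40% in size; top concentration of the series not given in the record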
# Target sequence (P25779 123-467 limits assumed): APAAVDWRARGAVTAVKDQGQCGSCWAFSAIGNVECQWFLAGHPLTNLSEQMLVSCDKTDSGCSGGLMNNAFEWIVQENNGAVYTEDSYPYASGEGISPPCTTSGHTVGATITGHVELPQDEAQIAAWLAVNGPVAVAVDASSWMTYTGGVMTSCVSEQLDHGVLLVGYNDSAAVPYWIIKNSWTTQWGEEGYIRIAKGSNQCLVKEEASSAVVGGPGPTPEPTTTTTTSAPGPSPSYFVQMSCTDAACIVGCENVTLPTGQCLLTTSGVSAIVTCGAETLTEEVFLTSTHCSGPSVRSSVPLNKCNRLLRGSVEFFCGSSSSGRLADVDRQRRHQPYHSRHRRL
#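 Steps: dispense cruzain (1.5 nM final) in acetate buffer pH 5.5 with DTT and 0.01% Triton X-100; pin-transfer compounds; incubate 15 min RT; add Z-FR-AMC (2 uM final); read fluorescence every 30 s, using the 60 s intensity change.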
# 2A StopGo = lowers the luciferase signal of an FMDV 2A StopGo reporter | AID 1159524 | 410,000 compounds, 1.2% hits | human cells with a luciferase reporter of 2A StopGo recoding; control for the full effect not named in the record | Potency, µM (top dose mostly 57.9 µM), for the others: at the top dose signal change, negative = less light; active = well fitted falling curve with a large enough effect; inconclusive = small, poorly fitted or top-dose-only effect; inactive = no such curve, though single readings can be large or run the other way; tested in HEK293T cells; also: % is scaled to controls: 0 for no effect and ±100 for the full control effect; nearly all actives have a fitted effect of over 45% in size; luciferase light after 4 h
# NS1 function inh = blocks influenza NS1 protein function | S. cerevisiae slowed by influenza A NS1, growth recovery by OD600 | Potency, µM (titrated, usually from 46.1 µM), for inactives: at the highest dose activity, positive = more growth | 270,000 compounds, 0.4% hits | AID 2326; also: actives are rising curves; nearly all actives have a fitted effect of over 50% in size
#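 In this qHTS, NS1 from influenza A is expressed in budding yeast, where it slows growth. Cells are switched from glucose to 2% galactose medium (pH 6.0, -URA), treated with compound, and growth recovery is read at OD600.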
# Cruzain inh noDet = blocks cruzain activity in detergent-free assay. purified cruzain, Z-FR-AMC fluorescence, no detergent. Potency, µM, for inactives: max response, negative = inhibition, actives largely listed as inhibitors. 200,000 compounds, 2.3% hits. AID 1476; active = well fitted curve in the direction sought with a large enough effect; inconclusive = small, poorly fitted or top-dose-only effect, or another doubt; inactive = no such curve, though single readings can be large; an effect the other way counts as inactive or inconclusive;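 also: plate controls were enzyme without inhibitor for no effect and buffer without enzyme for full effect; nearly all actives have a fitted effect of over 40% in size; top concentration of the series not given in the record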
#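 Detergent-free condition (0.00005% Triton X-100) in acetate buffer pH 5.5 with DTT. 1.5 nM enzyme and compound were pre-mixed 15 min, then 2 uM Z-FR-AMC substrate added; reaction progress from fluorescence change between first and third reads (60 s).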
# RE007 growth inh = less growth of the S. pombe RE007 Vpr strain; 360,000 compounds, 0.21% hits; S. pombe RE007 Vpr strain, BacTiter-Glo ATP luminescence, 24 h; control for the full effect not named in the record; Potency, µM (titrated, usually from 92.2 µM), inactives show top-dose activity change, negative = less growth; active = well fitted falling curve with a large enough effect; inconclusive = small, poorly fitted or top-dose-only effect; inactive = no such curve, though single readings can be large or run the other way;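 also: % is scaled to controls: 0 for no effect and ±100 for the full control effect; nearly all actives have a fitted effect of over 50% in size; the assay follows cell death caused by Vpr and the record does not say whether a fall means rescue or toxicity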
#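 Fission yeast strain RE007, carrying one chromosomally integrated HIV-1 vpr copy, was seeded at OD 0.01 in PMG+AL medium with 23 nL pinned compound. After 24 h at 30 °C and 99% humidity, viability was read by BacTiter-Glo luminescence.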
# MARV entry inh = Marburg virus entry inhibition | Marburg virus pseudotyped entry inhibition, cell reporter; control for the full effect not named in the record; about a third of the inactives were read at about 46 µM | 300,000 compounds, 1.8% hits | AID 540276 | Potency, µM (titrated, usually from 37.8 µM), for the others: top-dose activity change, negative = inhibition, hits mostly inhibitors; active = well fitted inhibition curve with a large enough effect; inconclusive = small, poorly fitted or top-dose-only effect, or effect the other way; inactive = flat fitted curve, though single readings scatter; tested in HEK293 cells; about a fifth of its hits are not listed in these tables; also: % is scaled to controls: 0 for no effect and ±100 for the full control effect; luciferase read-out
# * hit, by the source's call; ? = inconclusive; nt = no result given; & = joins results of further samples; [ ] = another dose, or the depositor's remark. Unless noted, calls follow the shape of the dose curve; as a rule, active means well fitted rising curve with a large enough effect; inconclusive means small, poorly fitted or top-dose-only effect; inactive means no such curve, though single readings can be large or run the other way. Potency is read from the fitted curve at half-maximal effect.
# Screens in order: Lassa entry inh | SARS PLpro yeast | Cruzain Triton | 2A StopGo | NS1 function inh | Cruzain inh noDet | RE007 growth inh | MARV entry inh
CC(C)C(C)NC(=O)COC(=O)/C=C/c1ccc(S(=O)(=O)N2CCc3ccccc32)cc1 (stereo not drawn)
→ ? | -1% | nt | -5% | nt | nt | 5% | -4%[46.1 µM]
COc1ccc(NS(=O)(=O)c2ccc(SC)cc2)cc1
→ ? | -8% | -2.2% | 6% | -7% | -23% | 19% | 3%
COc1cccc(-n2c(Cn3nc(C(F)(F)F)cc3C)n[nH]c2=S)c1
→ -3% | 6% | -1.2% | -22% | -9% | 2% | nt | 2%
CC(C)(C)c1ccc(OCC(=O)NNC(=O)c2cccnc2)cc1
→ 3%[46.1 µM] | -1% | nt | 28% | 0% | nt | 11% | 11%[46.1 µM]
COc1cc(C(=O)Nc2ccc(NC(=O)c3ccc(Br)cc3)cc2)cc(OC)c1OC
→ 5%[46.1 µM] | nt | -0.3% | 6% | nt | 12% | nt | nt
O=C(N/N=C/c1cccnc1)c1cccc(S(=O)(=O)Nc2cccc(Cl)c2)c1
→ 10% | 5% | nt | 53%[activator] | nt | nt | 4% | ?
CNC(=O)C1(CC(C)C)C=CCN1C(C)=O (stereo not drawn)
→ 3% | 8% | -1.0%&4.2% | 12% | 3% | 8%&-4% | 1% | 0%
CCCN(C(=O)C1=COCCO1)c1c(N)n(Cc2ccccc2)c(=O)[nH]c1=O
→ 10% | 0% | nt | -18% | nt | nt | 5% | 6%
O=C(NCC(=O)N(c1ccccc1)C(C(=O)NC1CCCCC1)c1ccncc1)c1ccco1 (stereo not drawn)
→ -15% | 0% | 0.1% | 27% | -10% | -1% | 25% | -1%
Cc1c(C=C2C(=O)NC(=O)NC2=O)c(=O)n(-c2ccccc2)n1C
→ ? | -3% | nt | -11% | ? | nt | 5% | 6%[46.1 µM]
COC(=O)c1ccc2c(c1)SC1=C(CCCC1=O)N2
→ -15% | 11% | -2.5% | 4% | 4% | -14% | 14% | 26%
Cn1ncc2nc(SCC(=O)Nc3ccc(Br)cc3F)n(Cc3ccccc3)c(=O)c21
→ 2%[46.1 µM] | nt | -0.8% | -16% | nt | -10% | nt | 14%[46.1 µM]
O=C(NCCN1CCCC1)c1ccc(Cn2c(=S)[nH]c3cc4c(cc3c2=O)OCO4)cc1
→ 15% | -2% | ? | 17% | -9% | ? | -15% | ?
Cc1ccc(NC2SC(=O)N(CC(=O)O)C2=O)cc1 (stereo not drawn)
→ 2% | 0% | 2.1% | nt | 3% | -5% | 3% | 4%
Cc1nc2ccccc2c(=O)n1NC(=O)/C=C/c1ccc(Br)cc1
→ -23% | -12% | -3.7% | 0% | -1% | -10% | 8% | -18%[46.1 µM]
CCOCC(=O)Nc1nc2ccc(OC)cc2s1
→ ? | 1% | 2.6% | 14% | -3% | -3% | -21% | ?
O=C(NCCN1CCN(c2ccccc2)CC1)c1cccc(Br)c1
→ -4% | -2% | -0.1% | -27% | -17% | -1% | -12% | ?
COc1ccc(CCn2c(=N)c(C(=O)NCCN3CCOCC3)cc3c(=O)n4cccc(C)c4nc32)cc1OC
→ nt | 4% | nt | -21% | 5% | nt | -6% | nt
CCc1ccc(OCC(=O)N2CC(C(=O)OC)Oc3ccccc32)cc1 (stereo not drawn)
→ nt | 2% | nt | -13% | -7% | nt | 10% | nt
O=C(COc1ccc(-n2cnnn2)cc1)Nc1cccc(Cl)c1Cl
→ ? | -1% | nt | -5% | 5% | nt | 10% | 2%[46.1 µM]
COc1ccc2c(c1)c1nnc(SCC(=O)N3CCCCC3C)nc1n2C (stereo not drawn)
→ -3% | -1% | 14µM* | -25% | -14% | -30% | -11% | 9%&9%
COc1ccc(-n2nc3cc(C)c(NC(=O)CC(C)C)cc3n2)cc1
→ nt | 4% | 3.4% | nt | -1% | -15% | nt | 2%
CCN(CCCNC(=O)CCn1c(=O)[nH]c2ccccc2c1=O)c1cccc(C)c1
→ -4% | -1% | 1.2% | 0% | -10% | 1% | 0% | -3%
O=C(CCCOc1ccccc1)Nc1ccc2c(c1)OCCO2
→ 1% | -7% | 0.0% | 58%[activator] | -5% | -3% | 4% | 37%
COc1ccc(-c2cc(-c3ccccc3)nc(=O)[nH]2)cc1
→ nt | -1% | nt | -15% | -5% | nt | -7% | nt
Cc1nc2ccn(Cc3ccco3)c(=O)c2cc1C(=O)NCc1ccc(Cl)cc1
→ ? | nt | -7.3% | -3% | nt | ? | nt | nt
CCN(C(=O)COC(=O)/C=C/c1ccc(O)c(OC)c1)C1CCS(=O)(=O)C1 (stereo not drawn)
→ 8% | 12% | -11% | -4% | ? | 4% | 1% | ?
Cc1ccc(S(=O)(=O)N2CCN(c3ccc([N+](=O)[O-])c(Sc4nncn4C)c3)CC2)cc1
→ -1% | 0% | -8.4% | -23% | 28% | 25% | -15% | -29%
O=C(Nc1ccccc1Cc1ccccc1)c1ccncc1
→ -4%[46.1 µM] | -3% | nt | 0% | -1% | nt | 1% | -1%[46.1 µM]
CC1Cc2ccccc2N1C(=O)CSc1nnc(C2CC2)n1C (stereo not drawn)
→ -19% | -2% | nt | 4% | 3% | nt | 6% | -15%[46.1 µM]

# (list continues)
# Screens in order: Lassa entry inh | SARS PLpro yeast | Cruzain Triton | 2A StopGo | NS1 function inh | Cruzain inh noDet | RE007 growth inh | MARV entry inh
CC(C)Oc1cccc(C(=O)Nc2ccc3oc(-c4cccc(Cl)c4)nc3c2)c1
→ -7%[46.1 µM] | nt | -1.6% | -26% | nt | 3% | nt | nt
CCSC1=N/C(=C\c2ccc(C)s2)C(=O)S1
→ 2% | -23% | -5.2% | -13% | -21% | -9% | -12% | 21%
N#CCC(=O)Nc1ccc(C(=O)OCC(=O)Nc2cccc(C(F)(F)F)c2)cc1
→ nt | -2% | nt | 9% | nt | nt | 5% | 5%[46.1 µM]
N=c1n(CCN2CCCCC2)c2ccccc2n1CC(O)c1ccco1 (stereo not drawn)
→ ? | 0% | nt | -6% | 1% | nt | -17% | ?
CC1CCC(NC(=O)C2CCN(S(=O)(=O)c3ccc4nc5c(c(C(=O)O)c4c3)CC(C)CC5)CC2)CC1 (stereo not drawn)
→ -2% | 3% | nt | 11% | nt | nt | -11% | 8%
Cc1oc(-c2ccc(C(=O)NCc3ccccc3F)cc2)nc1COc1ccccc1
→ ? | nt | -8.3% | -20% | nt | 9% | nt | nt
COc1ccc(OC)c(S(=O)(=O)NC(C)(C)C)c1
→ -12% | 2% | 1.2% | 32%[activator] | 5% | 1% | 8% | -1%
Cn1cnnc1SCc1ccc(C(=O)n2ncc(C#N)c2N)cc1
→ 0% | ? | 5.6% | 13% | 1% | 2% | 18% | -1%
Cc1ccc(S(=O)(=O)N(CCC#N)CCN2CCCC2)cc1
→ -18% | 7% | 3.4% | -10% | 1% | 8% | -2% | 26%
CCn1ncc(C2C(C(=O)Nc3ccc(C)cn3)=C(C)NC3=C2C(=O)CCC3)c1C (stereo not drawn)
→ 3% | -2% | -5.4% | -9% | 13% | -3% | -5% | ?
O=C(NNC(=O)C1CCN(Cc2ccc(F)cc2Cl)CC1)Nc1ccc([N+](=O)[O-])cc1
→ -17% | 0% | nt | -22% | 4% | nt | -8% | -3%
O=C(NCC1CCCCC1)C1CCN(C(=O)NC2CCCCC2)CC1
→ -1% | 5% | -1.1% | -16% | -6% | -2% | -7% | 17%
O=S1(=O)CC(O)C(NCc2cccnc2)C1 (stereo not drawn)
→ 20% | -1% | 2.6% | nt | -6% | 9% | -6% | 19%
COCCCNC(=O)c1c[nH]c2ccc(S(=O)(=O)N3CCC4(CC3)OCCO4)cc2c1=O
→ 5% | 1% | nt | -4% | nt | nt | 15% | -5%[46.1 µM]
O=C(COC(=O)CCc1ccccc1)Nc1cc([N+](=O)[O-])ccc1F
→ 3%[46.1 µM] | -3% | nt | -30% | -15% | nt | -12% | -1%[46.1 µM]
COc1cc(C2N(C)C(=O)c3ccccc3N2C)ccc1O (stereo not drawn)
→ -25%[46.1 µM] | -3% | nt | -2% | 2% | nt | 1% | -14%[46.1 µM]
O=C(O)c1cc(C(=O)C2CCCCC2)c[nH]1
→ 16%[46.1 µM] | 4% | nt | -9% | 2% | nt | 6% | -3%[46.1 µM]
COc1ccc(C(=O)n2nc(C)cc2C)cc1Br
→ 8% | -7% | 2.6% | -10% | -62% | -7% | -9% | 10%
O=C(N/N=C/c1c(O)n(CCc2ccc(F)cc2)c(=O)[nH]c1=O)c1ccncc1
→ 2% | 19% | nt | 2% | nt | nt | 2% | ?
O=C(CN1C(=O)S/C(=C/C=C/c2ccccc2)C1=O)Nc1ccc(C(=O)O)cc1
→ ? | 6% | nt | 29% | nt | nt | -3% | 4%[46.1 µM]
CC1Oc2ccccc2N(CC(=O)N2CCc3ccccc32)C1=O (stereo not drawn)
→ 20% | 6% | -0.6% | -14% | -5% | 1% | 13% | -10%
CCOc1ccc(S(=O)(=O)Nc2ccc3c(c2)N(C(C)=O)CCC3)cc1
→ ? | nt | -4.1% | -24% | nt | -6% | nt | nt
CCCCN(C)C(=O)c1cc2cc3ccc(OC)cc3nc2o1
→ nt | -1% | nt | 2% | -14% | nt | 3% | nt
O=C(Nc1nccs1)c1ccc2ccccc2n1
→ 8.9µM* | -2% | nt | 21% | 5% | nt | ? | ?
COc1ccccc1NC(=O)CSc1nc2[nH]ncc2c(=O)[nH]1
→ 1% | -1% | nt | 12% | nt | nt | ? | -1%[46.1 µM]
O=C(CN1CCOCC1)Nc1c(-c2ccccc2)c2cc(Br)ccc2[nH]c1=O
→ -15% | 2% | -2.8% | -5% | -6% | ? | -20% | -4%

# High-throughput results deposited in PubChem BioAssay by National Center for Advancing Translational Sciences (NCATS).
